Assay outcomes deposited in PubChem by National Center for Advancing Translational Sciences (NCATS).
Sfp PPTase inh: inhibitors of Bacillus subtilis Sfp phosphopantetheinyl transferase | Q9F4F7 | Biochemical Sfp PPTase activity, qHTS | Potency, µM, for the others: max response, negative = inhibition, most hits filed as inhibitors | 3.5% of 310,000 active | AID 1490; active = well fitted inhibition curve with a large enough effect; inconclusive = small, poorly fitted or top-dose-only effect, or another doubt; inactive = no such curve, though single readings can be large or run the other way;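 note: the enzyme is Sfp with the accession as filed and its product quenches rhodamine fluorescence; potency is the fitted concentration of half-maximal effect; 0% = enzyme reaction without inhibitor and -100% = no enzyme wells; top concentration of the series not given in the record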
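With Hepes-Na pH 7.6 buffer containing 10 mM MgCl2, Sfp (15 nM) modified BHQ-2-YbbR (12.5 uM) using rhodamine-CoA (5 uM). Two reads 30 minutes apart at 525/598 nm yielded each well's rate.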
TRPV1 potentiator: enhances activation of the human vanilloid receptor TRPV1 | Q8NER1 | TRPV1-expressing cells, Fluo-8 calcium influx, capsaicin EC20 potentiation; host cell line not named in the record; control for the full effect not named in the record | potentiation, % at 8.33 µM | 0.02% of 320,000 active | AID 540277; active means potentiation above 80%; inconclusive means 30% to 80%; inactive means below 30%; note: 0% is about no effect
Target sequence (Q8NER1 whole entry, looked up): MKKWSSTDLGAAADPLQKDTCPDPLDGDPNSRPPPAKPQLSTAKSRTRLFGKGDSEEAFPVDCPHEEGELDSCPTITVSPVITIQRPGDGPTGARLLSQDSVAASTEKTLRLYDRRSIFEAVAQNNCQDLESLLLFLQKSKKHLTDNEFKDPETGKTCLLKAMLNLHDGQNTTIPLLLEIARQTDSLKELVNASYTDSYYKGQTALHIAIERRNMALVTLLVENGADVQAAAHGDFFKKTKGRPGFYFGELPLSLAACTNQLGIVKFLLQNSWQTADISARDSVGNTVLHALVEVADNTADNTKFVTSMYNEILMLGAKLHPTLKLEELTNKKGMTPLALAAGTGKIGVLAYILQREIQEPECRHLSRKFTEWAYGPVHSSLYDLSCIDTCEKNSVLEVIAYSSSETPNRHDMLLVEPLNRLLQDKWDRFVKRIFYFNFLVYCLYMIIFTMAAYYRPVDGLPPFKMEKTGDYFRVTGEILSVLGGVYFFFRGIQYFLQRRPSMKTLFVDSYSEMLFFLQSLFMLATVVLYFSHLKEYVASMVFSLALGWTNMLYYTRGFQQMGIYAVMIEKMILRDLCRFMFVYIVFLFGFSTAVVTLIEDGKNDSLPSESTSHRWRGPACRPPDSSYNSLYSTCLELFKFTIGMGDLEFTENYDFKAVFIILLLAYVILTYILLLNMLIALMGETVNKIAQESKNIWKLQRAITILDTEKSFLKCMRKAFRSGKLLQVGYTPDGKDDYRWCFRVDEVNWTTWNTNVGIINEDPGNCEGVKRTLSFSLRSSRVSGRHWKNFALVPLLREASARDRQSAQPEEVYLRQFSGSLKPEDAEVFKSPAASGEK
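Cells expressing TRPV1 were dye-loaded with Fluo-8 and read kinetically: 10 s baseline, 3 min after compound (agonist portion), then 2 min after EC20 capsaicin (allosteric enhancer portion). Calcium-bound dye fluorescence at 480/520 nm.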
D2 potentiator: potentiates the human D2 dopamine receptor allosterically; P14416; DiscoveRx D2 beta-arrestin cells, luminescence, 90 min; 100% = 57 uM dopamine signal; potentiation, % (concentration not given with the values); 0.23% of 360,000 active; active = potentiation of 50% or more; inconclusive = 30% to 50%; inactive = 30% or less;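 note: compound concentration not given in the record; tested on top of an EC20 dose of dopamine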
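D2 cells co-treated with compound plus 50 nM dopamine (EC20) for 90 min at 37 deg C to detect potentiation. Beta-arrestin recruitment was read as enzyme-fragment luminescence after 1 h at ambient temperature. Full response was set by 57 uM dopamine.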
gsp antag: antagonists of gsp mutant (McCune-Albright syndrome); gsp-mutant cells, cAMP HTRF, 30 min; control for the full effect not named in the record; Potency, µM (titrated, usually from 76.9 µM), without a hit: at the highest dose activity change, negative = inhibition, most hits filed as inhibitors; 0.4% of 340,000 active; AID 624288; active = falling curve of any shape with a large fitted effect; inconclusive = falling curve, mostly with a smaller effect; inactive = flat or rising curve; cell line not stated here;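 note: intracellular cAMP measured with PDE inhibitor Ro 20-1724 present during compound exposure; potency is the fitted concentration of half-maximal effect; % is set by controls: 0 for no effect and ±100 for the full control effect; nearly all actives have a fitted effect of over 65% in size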
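HTRF cAMP read-out (cAMP-d2 plus anti-cAMP antibody-K in lysis buffer, 30 min RT). Before lysis, cells are exposed to compounds with […] for 30 min at 37C in DPBS containing Ca/Mg, BSA and Tween 20.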
gsp agonist: gsp mutant agonism | 0.13% of 340,000 active | gsp mutant cells, cAMP HTRF, 30 min; control for the full effect not named in the record | Potency, µM (series often up to 76.9 µM), for inactives: at the top dose activation (cAMP increase), hits mostly activators | AID 624287; active = well fitted activation curve with a large enough effect; inconclusive = small, poorly fitted or top-dose-only effect, or another doubt; inactive = no such curve, though single readings can be large or run the other way; cell line not stated here;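 note: phosphodiesterase inhibitor Ro 20-1724 added with compounds to block cAMP breakdown; potency is the fitted concentration of half-maximal effect; nearly all actives have a fitted effect of over 60% in size; about a fifth of the inactives were tested at one dose only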
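Cells in DMEM/10% FBS with G418 were pretreated with compounds in DMSO plus […] (300 uM stock) for 30 min at 37C. cAMP was measured by HTRF (cAMP-d2 plus anti-cAMP antibody-K) after 30 min at room temperature.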
Menin MLL FP FL: inhibitors of human menin-MLL interaction, wild-type MLL peptide; FP activity change, % at 61.4 µM; AID 1766; Fluorescence polarization, fluorescein-MLL peptide displacement from menin; 290,000 tested, under 10 active; inconclusive = falling polarisation curve, or a change in total fluorescence; inactive = total fluorescence flat and polarisation flat or rising; no compound was filed as active; the % refers to the polarisation; negative = inhibition;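 note: % of control where 0% means no effect; inhibitors lower the polarisation; unlabelled MLL peptide was the positive control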
ClpP mod: qHTS Assay for Activators of ClpP | ATP-dependent Clp protease proteolytic subunit (Bacillus subtilis (strain 168)), P80244 | purified B. subtilis ClpP, FRET peptide cleavage, 20 min | Potency, µM (doses to about 57.5 µM), without a hit: at the highest dose activity change, negative = active | 1.9% of 340,000 active | AID 651965, 2013; active = well fitted falling curve with a large enough effect; inconclusive = small, poorly fitted or top-dose-only effect; inactive = no such curve, though single readings can be large or run the other way; note: potency is the fitted concentration of half-maximal effect; the source files actives as falling curves though it sought activators and does not explain the sign; nearly all actives have a fitted effect of over 65% in size; many hits overshoot -100%
Target sequence (P80244 whole entry, looked up): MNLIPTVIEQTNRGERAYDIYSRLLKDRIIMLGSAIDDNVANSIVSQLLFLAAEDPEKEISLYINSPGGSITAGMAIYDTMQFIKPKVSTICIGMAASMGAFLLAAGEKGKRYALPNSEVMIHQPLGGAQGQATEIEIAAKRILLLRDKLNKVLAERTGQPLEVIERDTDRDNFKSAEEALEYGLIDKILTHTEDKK
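Purified B. subtilis ClpP, 10 microg/mL final in Tris/HCl pH8 with KCl, BSA, glycerol and Tween-20, cleaved an Abz/nitrotyrosine-quenched decapeptide. Fluorescence (ex 320, em 430) was read at 0 and 20 min at room temperature. Delta was normalized to 5.8 microM ADEP and DMSO/no-enzyme controls.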
Active calls of the source: *; ? = inconclusive; . = not tested or not shown; [ ] = remark or other dose.

SMILES	Sfp PPTase inh	TRPV1 potentiator	D2 potentiator	gsp antag	gsp agonist	Menin MLL FP FL	ClpP mod
O=C1N[C@@H](Cc2c[nH]c3ccccc23)COC(=O)[C@H](Cc2ccc(F)cc2)C/C=C\C[C@H]1CC(=O)N(CCO)Cc1ccccc1	.	.	-8	-18%	7%	.	-3.0%
CCOc1ccc(NC(=O)c2ccc(N3CC4CC(C3)c3cccc(=O)n3C4)c(N)c2)cc1 (stereo unspecified)	5%	11	-3	-16%	-17%	-1.0	-1.9%
CCOc1ccccc1N1CCN(CC(=O)NC(=O)NCc2ccco2)CC1	7%	8	-20	3%	-14%[15.4 µM]	-2.1	.
Cc1cc(C)c2nc3s/c(=C/c4ccccc4)c(=O)n3c2c1	8.9µM*	0	.	.	.	3.3	.
O=c1[nH]cnc2c1C1(CCCC1)Cc1ccccc1-2	17%	9	-8	-16%	?	-0.8	13µM*
CC(C)c1cc(C(=O)N2CCCC(Nc3ccc(F)cc3)C2)n[nH]1 (stereo unspecified)	1%	3	-15	-7%	25%	-5.5	-11%
Cc1n[nH]c(C)c1NC(=O)CN1CCN(S(=O)(=O)c2ccc(C(F)(F)F)cc2)CC1	.	.	-6	9%	6%	.	-1.5%
COC1(OC)N=C(N)C2(C#N)C(c3ccc(C)cc3)C12C#N (stereo unspecified)	13%	5	-7	0%	12%	3.2	-3.5%
CCN1CCN(C(c2cc(OC)c(OC)c(OC)c2)c2nnnn2C(C)C)CC1 (stereo unspecified)	1%	22	6	-21%[15.4 µM]	5%	1.7	-1.2%
N#Cc1ccc(C(=O)NCC(c2ccco2)N2CCCCC2)cc1 (stereo unspecified)	14%	3	-16	-5%	11%	-0.5	1.1%
C/C(O)=C(/C=Nc1ccccc1)C(=O)Nc1ccccc1	17%	-16	-1	-13%	-41%[inhibitor]	-0.6	.
Cc1c(Cl)cccc1N=C(N)N=C(N)N	25%	19	-11	11%	-3%[15.4 µM]	-1.5	.
CC(Oc1ccc2ccc(=O)oc2c1)C(=O)NCC1CCC(C(=O)O)CC1 (stereo unspecified)	6%	-5	-17	5%	.	-0.3	5.2%
Cc1ccc(N2C(=O)c3ccccc3NC2c2ccccc2O)cc1 (stereo unspecified)	11%	-2	-5	-12%	16%	3.3	4.0%
CCCCC(C(=O)NC(C)(C)C)N(Cc1ccccc1Cl)C(=O)c1snc(C(N)=O)c1N (stereo unspecified)	21%	-16	-2	-25%	1%[15.4 µM]	2.5	-12%
C=CCc1cc(Cl)ccc1OC(=O)Nc1cccc(Cl)c1	17%	10	-2	13%	-20%	5.6	-1.1%
CCN(CC(=O)Nc1ccccc1C(F)(F)F)C(=O)Cn1c(=O)cnc2ccccc21	.	2	-2	7%	-2%[15.4 µM]	.	.
Oc1[nH]c2ccccc2c1N=Nc1c(F)c(F)c(F)c(F)c1F	.	.	-19	-14%	-9%	.	-4.8%
O=C(c1ccco1)N1CCN(Cc2cc(=O)c(OCc3c(F)cccc3Cl)co2)CC1	.	-1	10	0%	-1%[15.4 µM]	.	.
O=C1CCCN1c1ncc(S(=O)(=O)c2ccc([N+](=O)[O-])cc2)s1	10%	-4	54*	-23%	15%[15.4 µM]	-1.3	62%

Individual results from the results shown:
Menin MLL FP FL, O=C1CCCN1c1ncc(S(=O)(=O)c2ccc([N+](=O)[O-])cc2)s1 is entered as -1.3
Sfp PPTase inh, C=CCc1cc(Cl)ccc1OC(=O)Nc1cccc(Cl)c1 is entered as 17%

(list continues)
SMILES	Sfp PPTase inh	TRPV1 potentiator	D2 potentiator	gsp antag	gsp agonist	Menin MLL FP FL	ClpP mod
O=C(CCl)N1CCN(CC(=O)N2CCCC2)CC1	-2%	3	1	-1%	?	-0.1	0.5%
CCN(CC(=O)NCc1ccc(Cl)cc1)C(=O)c1cc(OC)cc(OC)c1	22%	10	-1	.	-3%[15.4 µM]	0.0	.
Cc1ccc(-n2nnnc2SCC(=O)N2CCc3ccccc3C2)c(C)c1	-11%	-1	-6	-15%	-25%	-1.9	-2.2%
COc1cccc(C2NC(=O)c3sc(=S)n(-c4ccccc4)c3N2)c1 (stereo unspecified)	-17%	3	16	-8%	-14%	1.3	0.3%
CCOC(=O)Cc1csc(NC(=O)CSc2nc(C)cc(C)n2)n1	.	.	-19	-7%	8%[15.4 µM]	.	0.7%
O=C(CN1CCCC1=O)NC1(C(F)(F)F)NC(=O)N(Cc2ccccc2)C1=O (stereo unspecified)	3%	-10	6	4%	-2%	-0.9	-0.7%
N#Cc1ccc(NC(=O)COC(=O)c2cccnc2Cl)cc1	.	.	-6	4%	-3%	.	1.0%
CC(C)=CCc1c(-c2ccc(O)cc2O)oc2cc3c(c(O)c2c1=O)C=CC(C)(C)O3	.	.	12	-8%	.	.	1.8%
C=C[C@@H]1c2ccccc2N(S(=O)(=O)c2ccc(C)cc2)[C@H](c2ccc(C(=O)OC)cc2)C1(C#N)C#N	.	.	-1	9%	.	.	-5.2%
Cc1nn(C)c(C)c1NC(=S)Nc1ccc(S(=O)(=O)Nc2ncccn2)cc1	-19%	-11	-3	11%	-12%	3.1	-0.4%
COc1ccc(Br)cc1CN(C)CC(=O)Nc1ccccc1Cl	-5%	-4	-6	-10%	8%	9.4	28µM*
CC(C)CCN=Cc1c(O)n(-c2ccccc2)c(=O)c2ccccc12	56µM*	-5	-12	-5%	-63%[inhibitor]	0.7	-6.2%
COc1cccc(NC(=O)c2ccc3c(O)c(S(=O)(=O)c4ccccc4)c(=O)[nH]c3c2)c1	24%	4	-5	3%	?	5.4	-2.1%
Cc1ccc(-c2ocnc2C(=O)Nc2ccccc2NC(=O)c2ccccn2)cc1	?	-2	-2	-26%	-2%[15.4 µM]	-1.0	-2.9%
COc1cccc(CN(C)CC2CCCN(CCc3ccc(Cl)cc3)C2)c1OC (stereo unspecified)	11%	15	-14	6%	6%[15.4 µM]	-0.6	-3.4%
CCOc1ccc(-n2cc(-c3ccccc3)c3c(=S)nc[nH]c32)cc1	15%	10	-9	?	-1%	-0.3	2.2%
CC(C)(C)OC(=O)NCCCCCc1nnc(SCc2cccc(F)c2)o1	13%	-14	-16	?	4%	1.6	1.7%
O=C(Nc1cc(C(F)(F)F)ccc1N1CCCCC1)C1=COCCO1	.	.	-6	.	8%	.	-1.6%
CN(C(=O)COC(=O)CN1C(=O)c2cccc([N+](=O)[O-])c2C1=O)c1ccccc1	.	13	-1	-17%	-4%	.	0.2%
NS(=O)(=O)c1ccc(CCNC(=O)COC(=O)Cc2ccc([N+](=O)[O-])cc2)cc1	.	-1	2	3%	15%	.	-0.6%
CCOC(=O)c1cc(CC)sc1NC(=O)COC(=O)c1cnccn1	.	3	-9	-6%	-12%	.	-23%
Nc1nc(SCC(=O)C23CC4CC(CC(C4)C2)C3)n[nH]1	-11%	1	-1	-14%	-31%[inhibitor]	1.2	0.1%
O=C(NCC(=O)N1CCCC(C(F)(F)F)C1)c1ccc(Br)o1 (stereo unspecified)	.	-4	14	15%	?	.	-2.3%
O=C(CSc1nnc(-c2ccc(Cl)cc2)o1)N1CCOCC1	0%	5	-9	2%	-5%[15.4 µM]	1.8	.
Cc1ccccc1OCCC(=O)N1CCN(S(=O)(=O)c2ccc(F)cc2)CC1	3%	-10	-8	0%	-36%[inhibitor]	2.4	0.3%
CN(C)S(=O)(=O)c1cccc(NC(=O)CN2C(=O)NC(Cc3c[nH]c4ccccc34)C2=O)c1 (stereo unspecified)	-1%	-2	-4	15%	?	-0.2	.
CCn1c(=O)c2cc(C(=O)N(C)c3cc(C)ccc3OC)sc2c2ccccc21	-20%	8	-12	-8%	-76%[inhibitor]	0.7	-1.0%
Cc1oc(S(=O)(=O)N(C)C)cc1C(=O)Nc1ccc(F)cc1	12%	7	-3	-7%	-14%	-2.4	-0.1%
CC(CCn1cccn1)NC(=O)CCc1nnc(CCc2ccccc2)o1 (stereo unspecified)	20%	2	-3	-13%	-2%[15.4 µM]	0.8	.
COC(=O)c1sc(S(=O)(=O)NCCCN(C)C)c(C(=O)OC)c1C	9%	7	-35	0%	-2%[15.4 µM]	2.7	0.8%
OCc1cc(Br)ccc1OCc1nc2ccccc2s1	5%	4	-10	-17%	8%[15.4 µM]	?	.
CC(C)c1ccc(NC(=O)C(c2ccccc2)N(Cc2ccco2)C(=O)CC2NC(=O)NC2=O)cc1 (stereo unspecified)	-9%	6	-6	-7%	18%[15.4 µM]	20	.
Cc1ccc2c(c1)/C(=C/c1ccccc1C)C(=O)N2	-10%	1	-8	-6%	?	-7.3	.
Cc1cc(-c2ccccc2)nc(N/N=C/c2cccnc2)n1	14%	-19	-5	-8%	7%[15.4 µM]	3.4	.
COc1ccc(CN2C(=O)C(=O)N(CC(N)=O)C2=O)cc1	18%	3	-4	11%	-12%[15.4 µM]	-4.0	.
CCN(C(=O)CSc1nnc(-c2c[nH]c3ccccc23)o1)C1CCS(=O)(=O)C1 (stereo unspecified)	-14%	-5	-5	-7%	-35%	1.9	0.3%
O=C1C(C2=NC(c3ccccn3)C3C(=O)N(c4ccc(OC(F)(F)F)cc4)C(=O)C23)=C(O)c2ccccc21 (stereo unspecified)	14%	0	-10	0%	1%[15.4 µM]	-1.7	-6.2%
COc1cccc(CN(C(=O)c2ccccc2Br)C2CCS(=O)(=O)C2)c1 (stereo unspecified)	16%	-3	-7	-15%	23%	.	1.1%
O=C(C1CC1)N1N=C(C2CCCCC2)CC1(O)C(F)(F)F (stereo unspecified)	7%	2	0	-4%	23%	-2.4	.
CCn1c2ccccc2c2cc(NC(=O)c3ccco3)ccc21	1%	6	-8	-11%	9%	2.1	-3.8%
CNC(=O)c1ccsc1NC(=O)c1ccc(S(=O)(=O)N2CCc3ccccc32)cc1	-11%	-9	0	-8%	-27%	4.2	-0.6%
Cc1cc(NC(=O)CSc2nnc(-c3cccs3)n2N)no1	-10%	3	-7	7%	-23%	-0.5	-20%
CC(=O)C(C(C)=O)C(NC(=O)c1cccnc1)(C(F)(F)F)C(F)(F)F	8%	-6	3	6%	-48%[inhibitor]	18	-5.0%
